Screening results: PubChem, National Center for Advancing Translational Sciences (NCATS)
Lassa entry: qHTS for Inhibitors of binding or entry into cells for Lassa Virus; Lassa virus pseudotyped entry inhibition, cell-based qHTS; control for the full effect not named in the record; many of its hits are not listed in these tables; Potency, µM (series often up to 49.2 µM), inactives show at the highest dose activity change, negative = inhibition, actives largely listed as inhibitors; 4.1% of 18,000 active; active = well fitted inhibition curve with a large enough effect; inconclusive = small, poorly fitted or top-dose-only effect; inactive = no such curve, though single readings can be large or run the other way; tested in HEK293 cells; further: luciferase read-out
Marburg entry: qHTS for Inhibitors of binding or entry into cells for Marburg Virus | AID 720532, 2013 | Potency, µM (highest dose often 49.2 µM), for inactives: at the highest dose activity change, negative = inhibition, hits mostly inhibitors | Marburg virus pseudotype entry/binding inhibition, cell-based; control for the full effect not named in the record; many of its hits are not listed in these tables | 6.5% of 18,000 active; active means well fitted inhibition curve with a large enough effect; inconclusive means small, poorly fitted or top-dose-only effect; inactive means no such curve, though single readings can be large or run the other way; tested in HEK293 cells; further: luciferase read-out
Starred values were filed as active, the others as inactive; ? = inconclusive; · = not tested or not shown; & = joins results of further samples; ! = not active in a repeat; [ ] = remark or other dose. On the % scale 0 is the no-effect control and ±100 the full control effect; potency means the concentration at half of the fitted maximal effect. These rows are one share of the data; the hit share may differ from the screen's.

Values run as follows: Lassa entry | Marburg entry
> CCOC(=O)C1=C(C)NC(c2ccccc2)=C(C(=O)OCc2ccc([N+](=O)[O-])cc2)[C@@H]1C#Cc1ccccc1
    -13% | -29%
> CSCC[C@H](NC(=O)[C@H](CC(C)C)NC(=O)CNC(=O)[C@H](Cc1ccccc1)N(C)C(=O)[C@H](Cc1ccccc1)NC(=O)[C@H](CC(=O)O)NC(=O)[C@@H](N)CC(=O)O)C(N)=O
    -1% | 7%
> Cc1cccc2cc(CNCCCN3CCCC3=O)c(N3CCN4CCCC4C3)nc12 (stereo not given)
    -30% | ?
> NC(=NCc1ccc(Cl)cc1)SCCCc1cnc[nH]1
    1%&7% | ?
> CC(=O)N[C@H]1CSSC[C@@H](C(=O)N2CCC[C@H]2C(=O)N2CCC[C@H]2C(=O)N[C@@H](CCCCN)C(=O)N[C@@H](CC(=O)O)C(N)=O)NC(=O)CNC(=O)[C@H](Cc2c[nH]c3ccccc23)NC(=O)[C@H](CCCNC(=N)N)NC(=O)[C@@H](Cc2ccc3ccccc3c2)NC(=O)[C@H](Cc2cnc[nH]2)NC(=O)[C@H](CCC(=O)O)NC1=O
    -6% | 14%
> CSCC[C@H](NC(=O)[C@H](CC(C)C)NC(=O)[C@@H](Cc1cnc[nH]1)NC(=O)[C@H](Cc1ccccc1)NC(=O)[C@@H](Cc1ccccc1)NC(=O)[C@@H](N)Cc1ccc(O)cc1)C(N)=O
    -18% | -4%
> C=CCN=C1NC(c2cccc(F)c2)C(C(=O)OC)=C(C)N1Cc1ccccc1 (stereo not given)
    -15%[8.59 µM] | ?
> C[C@H](NC[C@H](O)CP(=O)(O)Cc1ccccc1)c1ccc(Cl)c(Cl)c1
    -5%&-3% | -3%&8%
> COc1ccc2[nH]cc(CCNc3ncncc3-c3ccc(N(C)C)cc3)c2c1
    -19% | 16µM*
> O=C1C[C@H](c2ccccc2)Oc2cc(O)cc(O)c21
    28% | 25%

Values run as follows: Lassa entry | Marburg entry
> OC[C@@H]1[C@@H](c2ccc(F)cc2)C(c2ccccc2)=NN1c1ccccc1
    ? | ?
> COc1ccc2[nH]cc(CCNCc3ccc(Br)cc3)c2c1
    -20% | 16µM*
> COCOCCn1cc(CN2CCS(=O)(=O)N(Cc3ccc(-c4ccccc4)cc3)C(C(C)C)C2=O)nn1 (stereo not given)
    · | -37%
> OCCN1C[C@H](O)[C@@H](O)[C@H](O)[C@H]1CO
    -15% | 14%
> C[C@@H]1CC[C@H]2C(=O)N3[C@@H](CC[C@@H](C)[C@@H]3c3ccc(Br)cc3)C(=O)N2[C@@H]1c1ccc(Br)cc1
    -8%[8.59 µM] | -25%[8.59 µM]
> CC1=CC[C@@H](COc2ccccc2)O[C@@]2(C1)C(=O)N(Cc1ccc(Br)cc1)c1ccccc12
    -25%[8.59 µM] | 25%[8.59 µM]
> CC(C)CCCCCCc1ccc(O)cc1
    -19% | -23%
> COS(C)(=O)=O
    -13% | 5%
> O[C@@H]1CCN2Cc3ccccc3N=C12
    -3% | 1%
> O=S1(=O)CCSCCN1Cc1cccc(Cl)c1
    · | 18%

Values run as follows: Lassa entry | Marburg entry
> CCCC[C@H](NC(=O)[C@@H]1CCCN1C(=O)[C@H]1CCCN1C(=O)[C@H](Cc1ccccc1)NC(=O)[C@@H](Cc1c[nH]c2ccccc12)NC(=O)[C@H](C)NC(=O)[C@H](CCCN=C(N)N)NC(=O)OC(C)(C)C)C(N)=O
    2% | -3%
> COCC(=O)N(c1c(C)cccc1C)C(C)C(=O)OC (stereo not given)
    -3% | 4%
> COC(=O)C1=C(C(=O)OC)[C@@H]2N(C)c3ccccc3[C@@]23C[C@@H](CO)N(C(=O)NC2CCCC2)C3=N1
    2%[8.59 µM] | ?
> O=C(NCCc1nnc2n1CCN(Cc1c(F)cccc1F)CC2)c1ccc(F)cc1
    -13% | -13%
> CC1CCC2=C1C[C@H](C(C)(C)O)CC[C@@H]2C (stereo not given in full)
    3% | 4%
> COc1cc(-c2ccc(Cl)cn2)cc2c1OCCN(C(=O)c1ccccc1-n1cccn1)C2
    -6% | 10%
> COc1ccc2[nH]cc(CCNc3nc(-c4ccoc4)nc4ccccc34)c2c1
    3% | ?
> C[C@H]1Cc2c(-c3ccccc3)nc3c(c2CO1)CN(C(=O)c1cccnc1)CC3
    -1%[8.59 µM] | ?
> CCCCCCC#C[C@@H]1C=C[C@H](OC(=O)OCC)[C@@H](COC(=O)OCC)O1
    -29%[8.59 µM] | -12%[8.59 µM]
> CC(NCCc1ccc(O)cc1)C(O)c1ccc(O)cc1 (stereo not given)
    -23% | 7%

Another view of 2 compounds above.
compound	Lassa entry	Marburg entry
CC(NCCc1ccc(O)cc1)C(O)c1ccc(O)cc1 (stereo not given)	-23%	7%
COc1ccc2[nH]cc(CCNc3nc(-c4ccoc4)nc4ccccc34)c2c1	3%	?

More entries
Values run as follows: Lassa entry | Marburg entry
> CCCN(C/C=C/I)C1CCc2ccc(O)cc2C1 (stereo not given)
    4% | -4%
> COC(=O)[C@@H](NC(=O)O[C@@H]1C(=O)c2cc(OC)ccc2O[C@H]1c1ccc(OC)c(Br)c1)C(C)C
    -12% | 2%
> CCCCN(CC)c1nc(C)nc2c1c(C)c(C)n2-c1c(C)cc(C)cc1C
    -18% | ?
> COc1ccc(C(CCN2CCOCC2)c2c(OC)cc(OC)c3c(-c4ccccc4)cc(=O)oc23)cc1 (stereo not given)
    ? | 22µM*
> CCn1c(-c2nonc2N)nc2ccccc21
    19% | ?
> Cc1cc2nc3c(=O)[nH]c(=O)nc-3n(C[C@H](O)[C@H](O)[C@H](O)CO)c2cc1C
    -14%&-11% | 20%&18%
> COc1ccc(C(=O)c2c(C)n(CCN3CCOCC3)c3cc(I)ccc23)cc1
    ? | ?
> O=S(=O)(Cc1ccccc1)c1nnnn1-c1ccccc1
    4% | -29%
> CN(C)CCOc1ccc(-c2cc(-c3ccc4c(c3)CCC4=NO)c(-c3ccncc3)o2)cc1
    · | 2µM*
> CCCCCC(=O)N1C[C@H](n2cc(C3CC3)nn2)[C@@H](O)C[C@H]1c1ccccc1
    -17% | 23%

Values run as follows: Lassa entry | Marburg entry
> COc1nn(CSP(=S)(OC)OC)c(=O)s1
    ? | -7%[107 µM]
> COc1ccc2[nH]cc(CCN)c2c1
    ? | ?
> C[C@@H]1CC[C@H]2C(=O)O[C@@H](COc3ccc(C(C)(C)C)cc3)CN2[C@@H]1c1ccc(Br)cc1
    · | ?
> CCCCCCCCCCCCCCCCCC(=O)OC[C@@H](O)[C@H]1OC[C@H](O)[C@H]1O
    1% | 13%
> O=C1C2CCN(CC2)C1(CO)CO
    ? | ?
> CCC1Cc2cc(O)ccc2C2=C1c1ccc(O)cc1CC2CC (stereo not given)
    ? | ?
> O=C(CCc1c[nH]c2ccccc12)N1CCC(n2c(C3CCCO3)nc3cc(C(F)(F)F)ccc32)CC1 (stereo not given)
    -3% | -8%
> CC[C@H](C)[C@H](NC(=O)[C@H](CO)NC(=O)[C@H](CC(N)=O)NC(=O)[C@H](CC(C)C)NC(=O)[C@H](Cc1ccc(O)cc1)NC(=O)[C@H](CCCCN)NC(=O)[C@H](CCCCN)NC(=O)[C@@H](NC(=O)[C@H](C)NC(=O)[C@H](CCSC)NC(=O)[C@H](CCC(N)=O)NC(=O)[C@H](CCCCN)NC(=O)[C@H](CCCNC(=N)N)NC(=O)[C@H](CC(C)C)NC(=O)[C@H](CCCNC(=N)N)NC(=O)[C@@H](NC(=O)[C@H](Cc1ccc(O)cc1)NC(=O)[C@H](CC(N)=O)NC(=O)[C@H](CC(=O)O)NC(=O)[C@@H](NC(=O)[C@H](Cc1ccccc1)NC(=O)[C@@H](NC(=O)[C@H](C)NC(=O)[C@H](CC(=O)O)NC(=O)[C@H](CO)NC(=O)[C@@H](N)Cc1cnc[nH]1)C(C)C)[C@@H](C)O)[C@@H](C)O)C(C)C)C(=O)N[C@@H](CC(C)C)C(=O)N[C@@H](CC(N)=O)C(N)=O
    2% | 24%
> Cc1ccc(S(=O)(=O)O)cc1C
    2% | -14%
> CC(C)(C)NC[C@H](O)c1ccc(O)c(CO)c1
    -13% | -6%

Values run as follows: Lassa entry | Marburg entry
> CC(C)[C@@H]1NC(=O)[C@H](Cc2ccccc2)NC(=O)[C@@H](CC(=O)O)NC(=O)CNC(=O)[C@H](CCCNC(=N)N)NC1=O
    -17% | 1%
> NC(=O)c1sc(-n2cnc3cc(C(F)(F)F)ccc32)cc1OCc1ccccc1Br
    · | ?
> Cc1ccc(CN2CC(N3CCN(c4ccccn4)CC3)CS2(=O)=O)cc1 (stereo not given)
    -10% | 2%
> CCn1c(-c2nonc2N)nc2c(C#CC(C)(C)O)ncc(OC3CCNCC3)c21
    · | 4µM*
> COc1ccc2c(c1)CCC1[C@@H]2CCC2(C)[C@@H](NCCCCCCN3C(=O)C=CC3=O)CC[C@@H]12 (stereo not given in full)
    2% | 2%
> C=C[C@]1(C)C[C@@H](OC(=O)CO)[C@]2(C)[C@H](C)CC[C@]3(CCC(=O)[C@H]32)[C@@H](C)[C@@H]1O
    -9% | 0%
> CCOC(=O)CN1C(=O)CC(C[C@@H](O)C2C[C@@H](C)C[C@H](C)C2=O)CC1=O (stereo not given in full)
    -7%&3% | -3%&19%
> CCCCCCCC/C=C/CCCCCCCCOP(=O)([O-])OCC[N+](C)(C)C
    -1% | -22%
> CNC(=O)C[C@H]1C(=O)N(c2ccccc2)C[C@@H]1Cc1ccccc1
    -5% | 11%
> C#CCN1C(=O)[C@]2(O[C@H](COc3ccccc3)CC3=CCCC32)c2c(Br)cccc21 (stereo not given in full)
    16%[8.59 µM] | 8%[8.59 µM]

Record cards, from the list above. Order of screens: Lassa entry | Marburg entry
C#CCN1C(=O)[C@]2(O[C@H](COc3ccccc3)CC3=CCCC32)c2c(Br)cccc21 (stereo not given in full) is entered as 16%[8.59 µM] | 8%[8.59 µM]
CCCCCCCC/C=C/CCCCCCCCOP(=O)([O-])OCC[N+](C)(C)C is entered as -1% | -22%
COc1ccc2c(c1)CCC1[C@@H]2CCC2(C)[C@@H](NCCCCCCN3C(=O)C=CC3=O)CC[C@@H]12 (stereo not given in full) is entered as 2% | 2%

The listing picks up with the two entries that preceded the break.
Values run as follows: Lassa entry | Marburg entry
> CNC(=O)C[C@H]1C(=O)N(c2ccccc2)C[C@@H]1Cc1ccccc1
    -5% | 11%
> C#CCN1C(=O)[C@]2(O[C@H](COc3ccccc3)CC3=CCCC32)c2c(Br)cccc21 (stereo not given in full)
    16%[8.59 µM] | 8%[8.59 µM]
> COc1cc2cc3c4c(cc(OC)c(OC)c4c2cc1OC)CCN3C
    ? | ?
> Cn1c(=O)c2c(ncn2CCOC(=O)C(C)(C)Oc2ccc(Cl)cc2)n(C)c1=O
    -7% | 8%
> CC[C@H](C)[C@H](NC(=O)[C@H](CCCNC(=N)N)NC(=O)[C@H](CCCNC(=N)N)NC(=O)[C@H](CC(C)C)NC(=O)[C@H](Cc1ccccc1)NC(=O)CNC(=O)CNC(=O)[C@@H](N)Cc1ccc(O)cc1)C(=O)N[C@@H](CCCNC(=N)N)C(=O)N1CCC[C@H]1C(=O)N[C@@H](CCCCN)C(=O)N[C@@H](CC(C)C)C(=O)N[C@@H](CCCCN)C(=O)N[C@@H](Cc1c[nH]c2ccccc12)C(=O)N[C@@H](CC(=O)O)C(=O)N[C@@H](CC(N)=O)C(=O)N[C@@H](CCC(N)=O)C(=O)O
    2% | 5%
> NS(=O)(=O)c1cccc(-c2cc3ccncc3cc2OCc2ccccc2)c1
    · | ?
> C[C@H]1C[C@@H](C)O[C@@]2(C1)C(=O)N(Cc1ccccc1C(F)(F)F)c1ccccc12
    1%[8.59 µM] | -15%[8.59 µM]
> CN1C(=O)CC(CC(=O)N2CCCCC2CCO)(c2cccc(F)c2)C1=O (stereo not given)
    22% | 13%
> CCCc1c2oc(C(=O)O)cc(=O)c2cc2c(=O)cc(C(=O)O)n(CC)c12
    -11% | -5%
> C=C[C@@H](C1=CC(=O)C(OC)=C(OC)C1=O)c1ccccc1
    -23% | ?
> c1ccc2c(c1)sc1ccccc12
    -10% | 9%
> C(=C/c1ccccc1)/CN1CCN(CCOC(c2ccccc2)c2ccccc2)CC1
    ? | ?

Values run as follows: Lassa entry | Marburg entry
> NC(=O)CCCCn1ccc(NC(N)=NCC(F)(F)F)n1
    9%&-6% | 11%&4%
> COc1cccc(Nc2nccc(-c3cnn4ncccc34)n2)c1
    ? | 0.32µM*
> FC(F)(F)c1cc(NC(=S)NC23CC4CC(CC(C4)C2)C3)cc(C(F)(F)F)c1
    -18% | ?
> Clc1cccc(Nc2nnc(-c3ccccc3)c3ccccc23)c1
    3.5µM* | 7.1µM*!
> CCCCNc1cccc2c1S(=O)(=O)N[C@H](Cc1ccccc1)CO2
    7% | 21%
> C[C@@H]1CC[C@H]2C(=O)N(Cc3ccc(Cl)cc3)C[C@@H](O)CN2[C@@H]1c1cccc(Br)c1
    7%[8.59 µM] | 32%[activator][8.59 µM]
> CC(C)C[C@@H](CC(=O)N[C@@H](CCCN)CC(=O)N[C@@H]1CCNC[C@H]1C(=O)N[C@H](CC(=O)N[C@@H](CCC(=O)O)CC(=O)O)Cc1c[nH]c2ccccc12)NC(=O)[C@@H]1CCCC[C@H]1N
    -9% | -4%
> CC(C)(C=O)Cc1cc(C(C)(C)C)c(O)c(C(C)(C)C)c1
    ? | 2%
